Screens from PubChem BioAssay.
VDR inh – vitamin D3 receptor (human) inhibition | Potency, µM, inactives show max response, negative = inhibition, hits mostly inhibitors | P11473 | 0.93% of 400,000 active | VDR-SRC2-3 peptide fluorescence polarization, 2 h | AID 504847; active = well fitted inhibition curve with a large enough effect; inconclusive = small, poorly fitted or top-dose-only effect, or another doubt; inactive = no such curve, though single readings can be large or run the other way; also: series mostly up to about 120 µM
Target sequence (P11473 whole entry, looked up): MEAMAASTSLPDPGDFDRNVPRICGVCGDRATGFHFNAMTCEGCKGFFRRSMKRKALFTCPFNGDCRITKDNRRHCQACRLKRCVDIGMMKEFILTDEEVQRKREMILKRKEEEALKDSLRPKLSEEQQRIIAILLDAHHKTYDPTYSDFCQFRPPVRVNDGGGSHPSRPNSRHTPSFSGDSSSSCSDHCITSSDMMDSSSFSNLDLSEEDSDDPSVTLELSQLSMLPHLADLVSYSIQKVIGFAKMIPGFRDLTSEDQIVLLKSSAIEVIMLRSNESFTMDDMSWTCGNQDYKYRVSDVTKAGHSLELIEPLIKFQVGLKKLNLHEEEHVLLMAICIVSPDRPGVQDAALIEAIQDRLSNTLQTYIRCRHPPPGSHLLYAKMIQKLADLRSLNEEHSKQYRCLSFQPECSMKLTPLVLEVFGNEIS
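Compounds are added to VDR with labelled SRC2-3 coactivator peptide and held 2 h at room temperature. Inhibition of the VDR–peptide interaction is then read as a change in fluorescence polarization.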
Active calls of the source: *; ? = inconclusive; & = joins results of further samples; [ ] = dose if it differs, or a comment. % is scaled to controls: 0 for no effect and ±100 for the full control effect; potency is read from the fitted curve at half-maximal effect.

VDR inh	SMILES
-10.1%	O=C(c1ccccn1)N1CCN(S(=O)(=O)c2cccc(Br)c2)CC1
-9.7%	Cc1ccc(CNC(=O)Nc2ccccc2)cc1
-1.0%	Cc1ccc(CSc2nnc(SCC(=O)N/N=C/C=C/c3ccccc3[N+](=O)[O-])s2)cc1
25.5%	CCOC(=O)c1ccc(NC(=O)CSc2nc(SC)ns2)cc1
-1.5%	COc1ccc(S(=O)(=O)NC(CC(=O)NCCc2ccc(OC)c(OC)c2)c2ccco2)cc1 (stereo not given)
1.2%	CCn1c(-c2ccccc2O)n[nH]c1=S
11.6%	CCOC(=O)c1c(C)oc2nc(C)nc(NCCCN3CCN(c4ccccc4)CC3)c12
-21.9%	Fc1ccc2nc(Nc3nc4c(s3)CCCC4)sc2c1
-20.1%	CC(C)Sc1nc2c(c(=O)[nH]1)C(c1cccs1)C1=C(CC(C)(C)CC1=O)N2 (stereo not given)
-25.4%	COc1ccc(OCCCC(=O)N(C)CC(=O)Nc2c(C)cccc2C)cc1
-3.8%	COC(=O)c1cc(NC(=O)CSc2nnc(CN3CCOCC3)n2C)ccc1Cl
-4.7%	O=C(Nc1ccccc1F)c1ccc(-c2cccc([N+](=O)[O-])c2)o1
-20.0%	Cn1nnnc1Sc1ncnc2scc(-c3ccccc3C(F)(F)F)c12
2.1%	O=C(CNC(=O)c1ccccc1C(F)(F)F)N/N=C/c1cccs1
5.3%	COc1cc(OC)c(NC(=O)CCn2cccn2)cc1Cl
-9.7%	COc1ccc(Br)cc1C(=O)Nc1cccc(C)c1
-21.3%&-0.9%	CC(C)CCNC(=O)C1CCC(CNS(=O)(=O)c2cccc3nsnc23)CC1 (stereo not given)
12.6%	CC1(C2CCC3C4CCC5CC6(CCC5(C)C4C(=O)CC32C)OCCO6)OCCO1 (stereo not given)
40.6%[activator]	Cc1ccc(S(=O)(=O)N2CCCCC2)cc1NC(=O)CCCOc1ccccc1
9.4%	COc1ccc(C(=O)CN2C(=O)N(c3ccc(C(C)=O)cc3)S(=O)(=O)c3ccccc32)cc1
-8.6%	CN(CCNC(=O)c1ccc(CS(=O)(=O)c2c(Cl)cccc2Cl)o1)CCc1ccccc1
4.1%	O=C(Cn1c(-c2cccs2)cc2cc(F)ccc21)NCCCN1CCN(c2ccccc2F)CC1
16.0%	COc1ccc(NC(=O)C2CCCN2C(=O)NCc2ccccc2)c(OC)c1 (stereo not given)
-13.7%	CN1C(=O)/C(=C\c2ccc(OC(=O)c3ccco3)cc2)SC1=S
13.3%	O=C(NCCNC(=O)c1ccccc1Br)c1ccccc1Br
18.9%	COc1ccc(N2C(=O)CSC23C(=O)N(Cc2cccc(C(F)(F)F)c2)c2ccccc23)cc1 (stereo not given)
-2.7%	CC1(C)CC(=O)C(C=NCCN2CCN(C(=O)c3ccc(F)cc3)CC2)=C(O)C1
-22.3%	CSc1ccc(OC2CCCCC2NS(=O)(=O)c2ccccc2)cc1 (stereo not given)
7.2%	COc1ccc2nc(NC(=O)c3cccc(S(=O)(=O)N4CCOCC4)c3)sc2c1
-5.7%	O=C(/C=C/c1cccs1)NNC(=O)c1ccccc1
-5.4%	Fc1ccc(-c2nc3ccccn3c2NCc2ccc3c(c2)OCO3)cc1
-6.1%	CCc1ccc(CN(C)C(=O)C2CCC(=O)N(Cc3ccccn3)C2)cc1 (stereo not given)
-5.3%	C/C(Cl)=C\Cn1c(O)c(N=O)c2ccccc21
0.6%	O=C(NCc1ccco1)C(=O)NCC1OCCCN1S(=O)(=O)c1ccccc1 (stereo not given)
1.3%	Cc1ccc(C)c(N2CCN(C(=O)Nc3cn(CC(C)C)c(=O)c4ccccc34)CC2)c1
-10.3%	O=[N+]([O-])c1ccc(N2CCN(c3ccc(F)cc3)CC2)nc1
-23.8%	COc1cccc(NC(=O)c2ccc(Cn3cc([N+](=O)[O-])cn3)o2)c1
-4.7%	CN1C(=O)C(=O)/C(=C(/O)c2ccc(Br)cc2)C1c1ccc(Cl)cc1 (stereo not given)
-6.1%	Cc1c(C(=O)NCc2ccccn2)oc2c(Cl)cccc12
-5.1%	O=C1/C(=C/c2ccco2)SC(=S)N1C1CCS(=O)(=O)C1 (stereo not given)
9.4%	Cc1nnc(NC(=O)c2ccc(Br)o2)s1
9.3%	Cc1cc(C)cc(-n2ccn(CC(=O)c3ccc(F)cc3)c(=O)c2=O)c1
0.8%	O=C1CN(C(=O)COC(=O)c2c(F)cccc2Cl)c2ccccc2N1
-16.5%	CCc1ccc(OCC(=O)c2c(O)c3ccccc3oc2=O)cc1
1.2%	CCN(CC)C(CNC(=O)CSc1nnnn1-c1c(C)cccc1C)c1ccco1 (stereo not given)
-7.4%	Cc1ccc(NC(=O)CCC(=O)c2cccs2)cc1F
-7.6%	CC(=O)N1CN(Cc2ccccn2)Cc2c1sc1c2CCCC1
8.7%	COc1ccc(-n2ncc3c(NCc4cccnc4)ncnc32)cc1
-13.8%	COc1cccc(NC(=O)CSc2nc(=O)n(CCN(C)C)c3c2CCCC3)c1
-7.9%	CN=C1c2c(-c3ccccc3)c3cc(OC)ccc3n2CCN1C

3 entries picked at random from the list so far, as already listed:
VDR inh	SMILES
-7.4%	Cc1ccc(NC(=O)CCC(=O)c2cccs2)cc1F
-2.7%	CC1(C)CC(=O)C(C=NCCN2CCN(C(=O)c3ccc(F)cc3)CC2)=C(O)C1
0.6%	O=C(NCc1ccco1)C(=O)NCC1OCCCN1S(=O)(=O)c1ccccc1 (stereo not given)

Following part:
VDR inh	SMILES
-4.9%	CS(=O)(=O)c1ccccc1-c1nnc(NC(=O)c2ccco2)o1
-5.6%	COc1ccc(CNC(=O)CN(C(=O)c2csnn2)c2cnc3ccccc3c2)cc1
-14.2%	CNC(=S)N1CCN(C(=O)c2ccco2)CC1
14.0%	Cc1ccc(S(=O)(=O)N(CCC#N)C2CCCCC2)c2nsnc12
7.9%	CCCCn1c(SCC(=O)Nc2ccc(OC)cc2)nc2ccc(N3CCOCC3)cc2c1=O
-7.8%	CCc1nc2cccnc2n1-c1ccc(CC(=O)Nc2c(C)cccc2C)cc1
3.5%	CC(=O)Nc1ccc(-c2csc(Nc3cc(C)ccn3)n2)cc1
?	CCOC(=O)C1(C)/C(=N/Nc2ccccc2)C(=O)C(=O)N1c1ccccc1 (stereo not given)
-0.1%	COc1ccccc1CN1[C@@H](CC(=O)O)c2ccccc2S1(=O)=O
-12.9%	CCOCCCNC(=O)C1CC(=O)N(CCc2ccc(C)cc2)C1 (stereo not given)
-2.3%	O=C(Cc1ccc(F)cc1)NC1CC(=O)N(c2ccccc2)C1 (stereo not given)
?	Cc1cc(NC(=O)CSc2nnc(C3COc4ccccc4O3)n2N)no1 (stereo not given)
-4.3%	Cc1ccc(S(=O)(=O)N2CCCCC2CCNC(=O)C(=O)NCc2ccccc2C)cc1 (stereo not given)
-3.8%	Cc1cc(-c2ccccc2)nc(N/N=C/c2ccc(O)cc2)n1
9.9%	Cn1cc(C(=O)N/N=C/c2ccc(Br)c([N+](=O)[O-])c2)c2ccccc21
13.7%	O=C(NNC(=S)NC(=O)c1cccnc1)c1ccccc1
9.0%	C/C(=N\NC(=O)c1nnn(-c2nonc2N)c1-c1ccc(Cl)c(Cl)c1)c1ccncc1
-15.1%	CCOC(=O)c1cn2ccc(C)cc2n1
-11.1%	C=C(C)C1CCC(C)=C1COC(=O)Nc1ccccc1 (stereo not given)
-7.3%	CC(C)Nc1cc(C(F)(F)F)nc(-c2ccccn2)n1
18.0%	COc1ccc(CNC(=O)CC2N=C3c4ccccc4N=C(SCC(=O)Nc4ccc(C(C)C)cc4)N3C2=O)cc1 (stereo not given)
4.9%	Cc1nnc(Sc2cc(C(=O)NC3CC3)c3ccccc3n2)s1
6.6%	COC(=O)c1ccc(-c2nc(CN3CCCN(C(=O)c4ccco4)CC3)c(C)o2)cc1
-17.7%	CCOC(=O)N1CCN(S(=O)(=O)c2ccc(C(=O)Nc3nnc(C4CC4)o3)cc2)CC1
-10.4%	COc1ccc(C(=O)N(C)C(C)c2ccon2)cc1OC1CCN(C(C)C)CC1 (stereo not given)
-17.4%&-9.7%	COc1ccc(C2/C=C\CN(CC(C)C)CC(=O)N2Cc2ccc(F)cc2)cc1 (stereo not given)
-6.4%	CC(C)(C)C(=O)NCCc1nc(-c2ccccc2)no1
8.3%	CCOc1ccc(NC(=O)CCN2CCCCC2)cc1
-1.0%	COc1ccc(-n2c(C)cc(/C=C3/SC(=O)N(CC(=O)N4CCOCC4)C3=O)c2C)cc1
0.0%	O=C(Nc1cccc2ccccc12)c1cnccn1
2.3%	CN(C)Cc1ccccc1-c1nccc(NC2CC2)n1
-16.9%	CC(=O)N1CC(=O)N(c2ccccc2)C1=O
5.3%	Cc1ccc(C2CC(=O)Nc3cc4c(cc32)OCCO4)cc1Br (stereo not given)
-5.4%	CC12CN3CCN(CC(C3)C1(O)CN1CCCCC1)C2 (stereo not given)
13.6%	Cc1ccc(CCNC(=O)C2CCN(c3nnc(-n4cccc4CNc4ccc(C)cc4)s3)CC2)cc1
3.2%	Cc1n[nH]c(=S)n1/N=C/c1cccc(OCc2ccccc2)c1
6.7%	O=C(Nc1ccc(F)c(Cl)c1)Nc1c[nH]c(=O)[nH]c1=O
1.9%	CN(CC1CCOCC1)C(=O)CC1C(=O)NCCN1CC1CCCCC1 (stereo not given)
-5.7%	Cc1[nH]n(-c2ccccc2)c(=O)c1N=Nc1ccc(Cl)cc1
-15.7%	COCCNC(=O)CN(C(=O)CCC(=O)Nc1cc(C)on1)c1cccc(C)c1C
6.9%	Cc1ccc(C)c(Oc2c(C(F)(F)F)oc3c(CN4CCN(C)CC4)c(O)ccc3c2=O)c1
14.3%	COc1cc(C(=O)NCCC(=O)N2CCN(C)CC2)cc(OC)c1OC
3.9%	O=C(NN=Cc1ccc(OC(F)F)cc1)c1ccc(NS(=O)(=O)c2cccs2)cc1
-23.0%	CCOC(=O)c1c(NC(=O)c2cc(C(C)C)on2)sc(C)c1C
-6.4%	O=C(COc1ccccc1[N+](=O)[O-])Nc1cccnc1
-1.9%	CC(=O)NCCc1nc2cc(NC(=O)c3ccccc3)ccc2n1C
0.7%	O=C(NNS(=O)(=O)c1ccc(Cl)cc1)c1cccs1
2.2%	CCOC(=O)C1CCN(C(=O)Cn2nc(C)n3nc(-c4ccc(OC)cc4)cc3c2=O)CC1
-18.8%	S=C(NCCc1ccccc1)N1CCCCC1
1.7%	CCOC(=O)C1=CC(OC(CC)CC)C(NC(C)=O)C(N)C1 (stereo not given)

Among those listed so far, 10 have a thiophene ring, fused or not:
VDR inh	SMILES
-20.1%	CC(C)Sc1nc2c(c(=O)[nH]1)C(c1cccs1)C1=C(CC(C)(C)CC1=O)N2 (stereo not given)
-20.0%	Cn1nnnc1Sc1ncnc2scc(-c3ccccc3C(F)(F)F)c12
2.1%	O=C(CNC(=O)c1ccccc1C(F)(F)F)N/N=C/c1cccs1
4.1%	O=C(Cn1c(-c2cccs2)cc2cc(F)ccc21)NCCCN1CCN(c2ccccc2F)CC1
-5.7%	O=C(/C=C/c1cccs1)NNC(=O)c1ccccc1
-7.4%	Cc1ccc(NC(=O)CCC(=O)c2cccs2)cc1F
-7.6%	CC(=O)N1CN(Cc2ccccn2)Cc2c1sc1c2CCCC1
3.9%	O=C(NN=Cc1ccc(OC(F)F)cc1)c1ccc(NS(=O)(=O)c2cccs2)cc1
-23.0%	CCOC(=O)c1c(NC(=O)c2cc(C(C)C)on2)sc(C)c1C
0.7%	O=C(NNS(=O)(=O)c1ccc(Cl)cc1)c1cccs1

Next structures follow.
VDR inh	SMILES
6.1%	COc1ccc(-c2cc(=O)c3cc(OCC(=O)OC(C)C)ccc3o2)cc1
-10.3%	O=C(Nc1ccc(Oc2cccnc2)cc1)C1CCCCN1Cc1ccc(CO)o1 (stereo not given)
-3.7%	CC(NS(=O)(=O)c1ccccc1)c1n[nH]c(=S)n1-c1ccccc1 (stereo not given)
-0.1%	O=C(O)C(CCc1ccccc1)(Cc1ccccc1)C(=O)O
25.1µM*	COc1ccc(/C=C/C(=O)c2ccncc2)c2ccccc12
7.9%	CCOC(=O)C1CCN(CC(=O)Nc2cc(C)nn2-c2nc3ccccc3s2)CC1
-11.2%	Cc1c(CCO)c(=O)n(-c2ccccc2)n1S(=O)(=O)c1ccc(F)cc1
-5.0%	CN(C)c1ccc(/C=C2\N=C(C(C)(C)C)OC2=O)cc1
?	CCN1C(=O)CSC1=Nc1ccc(Cl)c(Cl)c1
7.9%	CN(CC(=O)Nc1ccc(C(N)=O)cc1)S(=O)(=O)c1ccc2c(c1)OCCO2
?	CC1CN(C(=O)CCC(=O)N2CCCCC2)c2ccccc2O1 (stereo not given)
-29.1%	C[N+](C)=C1SCC(C)(/C=N/O)S1 (stereo not given)
6.0%	NNc1nc2sc3c(c2c(=O)n1Cc1ccccc1)CCC3
-7.4%	Cc1cc(C)cc(N(C(=O)c2cc3ccccc3oc2=O)C2C=CS(=O)(=O)C2)c1 (stereo not given)
11.6%	O=C(N/N=C/c1cn(CCOc2ccccc2)c2ccccc12)c1ccncc1
-1.6%	CCC1(c2ccc(Cl)cc2)NC(=O)N(CC(=O)NC2(C#N)CCCCC2)C1=O (stereo not given)
-2.7%	CCOc1ccc(S(=O)(=O)NCc2ccccn2)c(C)c1C
-1.7%	CCCCC(OC(=O)c1cc2occc2n1C)C(=O)NCC1CCCO1 (stereo not given)
-3.6%	CCOc1ccc(Br)cc1CSC(=N)N
6.5%	O=C(CCn1cnc2ccccc2c1=O)NCc1ccccc1Cl
-2.1%	COc1cc2nc(NC(=O)c3ccc(Cl)cc3)[nH]c(=O)c2cc1OC
7.9%	O=C(CN1C(=O)NC2(CCCCC2)C1=O)Oc1ccc2ccc(=O)oc2c1
-5.7%	CC(C)NC(=O)CC1Nc2c3ccccc3nc(=S)n2C1=O (stereo not given)
-3.5%	O=C(CNC(=O)c1ccccc1F)NCC(c1cccs1)N1CCOCC1 (stereo not given)

This is a subset. The share of hits here may be higher or lower than overall.
